# Ab BasE inh: inhibitors of Acinetobacter baumannii siderophore enzyme BasE; purified BasE, fluorescence polarization binding displacement; inhibition, % (no concentration beside the values); 84,000 tested, 0.1% active;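 active means both replicates above 25% with normal brightness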;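 further: 0% = negative plate control signal and 100% = positive plate control signal; stock transfer was 100 nL into about 30 µL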
# LANA-nucl inh: LANA-nucleosome interaction inhibition; z-score (concentration not given with the values); FITC-LANA1-23 / chicken nucleosome fluorescence polarization; hits give low values; AID 720717; 51,000 tested, 0.3% active;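 active means both repeat wells score below -2 in polarization z-score versus plate sample wells, excluding overly bright wells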;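 further: 100 nL library stock added to about 30 µL; numbers are from one replicate; some results filed as inactive read as strong as hits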
#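 Assay system: FITC-LANA peptide and chicken nucleosomes; input: 240 nM purified chicken nucleosomes (480 nM peptide binding sites), final; also added: 50 nM FITC-LANA1-23 probe; medium: TEN-BT buffer, pH 7.5; doses: pin-transferred compound, 100 nL; times: 10–45 min, room temperature; technique: fluorescence polarization; replication: duplicates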
# The depositor's hits bear a star; . = not tested or not shown; & = joins results of further samples. Only part of the results is shown; rates above refer to the full screens.
# Values run as follows: LANA-nucl inh | Ab BasE inh
- Cc1cc(Cl)ccc1OCc1nnc(SCC(=O)O)n1C1CCCCC1
 : . | -0.4
- CC(C)c1ccc(C(=O)COC(=O)C(O)c2ccccc2)cc1 (configuration not stated)
 : . | -1.4
- Cc1cccnc1NC(=O)NC(C)(C(F)(F)F)C(F)(F)F
 : . | 2.6
- CCN1C(=S)SC(=O)C1=C1C=C(C)N(CCOC)C(C)=C1
 : . | -0.1
- c1ccc(-c2ccc(CNCc3ccco3)o2)cc1
 : -0.39 | -0.2
- CCCCCCC1COC(c2ccc(O)cc2)OC1 (configuration not stated)
 : -0.55 | -0.6
- Cc1cc(NC(C)c2ccccc2)n2c(nc3ccccc32)c1C#N (configuration not stated)
 : . | -1.9
- CC1S/C(=N/N=C/c2ccccc2)NC1=O (configuration not stated)
 : -0.93 | -0.6
- O=C(N1CCOCC1)N1CCC(NC(=O)C23CC4CC(CC(C4)C2)C3)CC1
 : -0.65 | -0.2
- Cc1cc(F)ccc1S(=O)(=O)Nc1ccc2c(c1)N(C(=O)C1CC1)CCC2
 : -0.39 | 1.5
- Cc1nn(-c2ccccc2)c2c1-c1sc(C(=O)NCc3cccs3)cc1CC2
 : 0.61 | -1.3
- CC1CCCCC1NC(=O)CSc1nccc(=O)[nH]1 (configuration not stated)
 : 0.11 | -2.0
- CCOc1cc(C(OC(C)=O)OC(C)=O)cc(Cl)c1OC(C)=O
 : 2.1 | -1.6
- CC1=C(c2ccccc2)S(=O)(=O)N=C1N1CCCC1
 : -0.22 | -2.1
- N#CC1(NC(=O)CSc2nc(N)cc(N)n2)CCCC1
 : . | -0.9

# Profiles, quoted from the list.
# Cc1cc(NC(C)c2ccccc2)n2c(nc3ccccc32)c1C#N (configuration not stated) is entered as LANA-nucl inh = .; Ab BasE inh = -1.9
# CCN1C(=S)SC(=O)C1=C1C=C(C)N(CCOC)C(C)=C1 is entered as LANA-nucl inh = .; Ab BasE inh = -0.1
# c1ccc(-c2ccc(CNCc3ccco3)o2)cc1 is entered as LANA-nucl inh = -0.39; Ab BasE inh = -0.2

# New compounds follow:
# Values run as follows: LANA-nucl inh | Ab BasE inh
- CCOC(=O)/C(C#N)=C(\O)c1ccccc1
 : -0.62 | 2.6
- O=C(O)CSCC(=O)Nc1cccc(C(F)(F)F)c1
 : 0.019 | -0.8
- CC1CC1C(=O)OCC(=O)Nc1ccc2[nH]c(=O)[nH]c2c1 (configuration not stated)
 : . | 1.2
- N#Cc1c(-c2ccccc2)c(-c2ccccc2)n[nH]c1=O
 : 0.49 | 1.7
- O=C(O)CCC1CCCCCCCCCCC1
 : . | 3.8
- Cc1cccc(C(=O)OC(C)C(=O)N2CCc3ccccc3C2)c1C (configuration not stated)
 : . | -1.2
- COc1cccc2cc(C(C)N(CCCN3CCOCC3)C(=S)Nc3cccc(Cl)c3C)oc12 (configuration not stated)
 : 0.62 | 1.1
- Cc1oc(-c2ccc(Cl)cc2)cc1C(=O)N1CCc2[nH]c3ccc(F)cc3c2C1
 : -0.37 | 0.1
- COc1ccc2c(Cl)c(C(=O)N(C)C3CCN(C)CC3)sc2c1
 : . | -3.5
- CCOC(=O)N1CCC(=NNc2nc(C)cc(=O)[nH]2)CC1
 : . | 3.8
- O=C(CSc1ccc2nnc(-c3ccncc3)n2n1)Nc1ccccc1
 : 0.61 | 0.8
- CCOc1ccc(N(Cc2cc3cc(OC)ccc3[nH]c2=O)S(C)(=O)=O)cc1
 : -0.88 | 1.1
- O=C(N=c1c2c3c(sc2nc2n1CCCCC2)CCCC3)c1ccc(S(=O)(=O)N2CCOCC2)cc1
 : . | 1.8
- COc1c(C)c2c(c(O)c1C/C=C(\C)CCC(=O)O)C(=O)OC2
 : 1.2&-0.019&0.61&0.82 | -0.8&-2.8
- CCOc1cc(/C=C2/C(=O)N(c3ccccc3)C(=S)N(c3ccc(C)c(C)c3)C2=O)ccc1O
 : . | 0.5
- CCNc1nc(NCC)n2c(SCC(=O)N3CC(C)OC(C)C3)nnc2n1 (configuration not stated)
 : . | 1.1
- O=C1Cc2cc(S(=O)(=O)NNc3ccc(C(F)(F)F)cn3)ccc2N1
 : . | 0.3
- O=C1N/C(=N/N=C/c2ccco2)SC1c1ccccc1 (configuration not stated)
 : 0.9 | 3.2
- O=C(c1ccc(Br)cc1)c1cc2c(cc1Br)OCCCO2
 : . | 1.1
- Cc1nn(-c2ccccc2)c2sc(C(=O)OCC(=O)c3ccccc3)cc12
 : . | 0.1
- O/N=C/c1ccoc1
 : 0.56 | 2.4
- CCCCn1c2ccccc2c2nnc(SCc3ccccc3)nc21
 : 0.76 | 2.7
- Cc1ccc(O)c(C=Nc2cc(C)on2)c1
 : -0.12 | 3.3
- CC1Cn2c(CCc3ccccc3)nnc2S1 (configuration not stated)
 : -0.78 | 1.5
- N#C/C(=C/c1ccco1)c1ccc2ccccc2c1
 : 0.9 | -4.2
- CN(C)C(=O)Cc1coc2ccc3ccccc3c12
 : -0.72 | -0.3
- NC1c2c(ccc3ccccc23)OCC1CO (configuration not stated)
 : 0.2 | .
- CC(SCc1ccco1)C(=O)O (configuration not stated)
 : -1.1 | 3.1
- O=C(Nc1ccccc1N(C(=O)C1CC1)S(=O)(=O)c1cccs1)C1CC1
 : . | 0.3
- O=C(CN1CCN(C/C=C/c2ccccc2)CC1)Nc1cccc(Cl)c1
 : -0.46 | -2.9
- O=C(N/N=C1\C2CN3CCN(C2)CC1(Cc1ccccc1)C3)c1ccc(F)cc1
 : 0.081 | 1.6
- Cc1ccc(S(=O)(=O)/C=C/C#N)cc1
 : -0.4 | -0.6
- CCNS(=O)(=O)c1ccc2c(c1)C(=O)c1cc(S(=O)(=O)NCC)ccc1-2
 : . | 0.3
- CCOC(=O)CC1Sc2ccccc2N=C1SCCS(=O)(=O)c1ccc(Cl)cc1 (configuration not stated)
 : . | -0.6
- CN(C)c1cc(C(F)(F)F)nc(-c2ccccn2)n1
 : -0.9 | .
- COc1cccc(OC)c1C(=O)NN1CCCCC1
 : 0.31 | 0.8
- CN1C(=O)OC(C)(C)C1=O
 : -0.3&-0.046 | -1.2
- CN1CCCN(C(=O)c2ccc3[nH]c4c(c3c2)CCCC4)CC1
 : . | 0.0
- NC(=O)N/N=C1\CCS(=O)(=O)c2ccc(F)cc21
 : . | 2.6
- Cc1nn(Cc2c(Cl)cccc2Cl)c(Cl)c1CN1CCN(CC(=O)N2CCCC2)CC1
 : . | -2.6
- CCOc1ccc(-c2nnc(SC(F)F)n2CCC(=O)OCc2ccc(C#N)cc2)cc1
 : . | -1.8
- CCCCOc1ccc(C2(C(=O)O)CCCC2)cc1
 : -0.07 | -0.2
- Cc1onc(-c2ccccc2)c1CNC(=O)C1CCC1
 : . | 2.3
- CC(NC(=O)COc1ccc(Oc2ccccc2)cc1)C(=O)O (configuration not stated)
 : . | 1.4
- Cc1cc(C)c2c(n1)sc1c(N3CCN(CCO)CC3)ncnc12
 : -1.4 | -0.3
- CC(C)c1ccccc1N=C=S
 : . | 1.8
- COc1cccc(/C=N/NC(=O)c2ccccn2)c1
 : 0.39 | 1.7
- CC1CCN(Cc2c(O)ccc3c2O/C(=C\c2ccccc2)C3=O)CC1
 : 0.14 | 1.0
- Cc1cc(C(=O)N2CCN(Cc3ccc4c(c3)OCO4)CC2)cs1
 : 2.3 | -5.5
- COc1ccc(OC)c(C2(O)CSC(=Nc3cccnc3)N2Cc2ccco2)c1 (configuration not stated)
 : . | -0.3
- COc1ccc(CCNC(=O)c2ccc3c(=O)n(Cc4ccc5c(c4)OCO5)c(=O)[nH]c3c2)cc1OC
 : -1.6 | 0.0
- COC(=O)c1cc(S(=O)(=O)NCC2CCN(Cc3cccc(Cl)c3)CC2)c[nH]1
 : 0.2 | -3.2
- O=C(Cn1cc(NC(=O)c2cc(-c3ccc(F)cc3)no2)cn1)NCc1ccco1
 : -0.46 | 2.1
- O=c1[nH]c(CSc2nnc3ccccn23)nc2ccccc12
 : . | 4.1
- COc1ccccc1CNC(=O)C(CC(C)C)NC(N)=O (configuration not stated)
 : . | 0.4
- N#C/C(=C\c1cn(Cc2ccccc2C#N)c2ccccc12)C(=O)NCc1cccs1
 : -0.75 | 0.9
- Cc1ccc2nc(SCC(=O)N3CCCCC3)c(C#N)cc2c1
 : 2.5 | -3.9
- CC(C)N(CC(N)=O)c1nc(-c2cccs2)nc2ccccc12
 : . | 0.7
- CC1(C)OC(=O)C(=Cc2ccc(C#N)cc2)C(=O)O1
 : -0.27 | -0.4
- CN1CCCN(Cc2ccccc2)CC1
 : -0.3 | -3.9

# 2 entries picked at random from those above:
# Values run as follows: LANA-nucl inh | Ab BasE inh
- COc1ccccc1CNC(=O)C(CC(C)C)NC(N)=O (configuration not stated)
 : . | 0.4
- Cc1ccc2nc(SCC(=O)N3CCCCC3)c(C#N)cc2c1
 : 2.5 | -3.9

# Next compounds
# Values run as follows: LANA-nucl inh | Ab BasE inh
- Cc1cc(NS(=O)(=O)c2ccc(NC(=O)c3ccco3)cc2)no1
 : . | -1.1
- CC(=O)Nc1nc(NC(C)=O)nc(-c2ccccn2)n1
 : . | 0.1
- Cc1cc2[nH]c(=O)c(=O)[nH]c2cc1S(=O)(=O)N1CCCCC1
 : 0.39 | -0.5
- COc1ccccc1NC(=O)C(C)O/N=C/c1ccccc1 (configuration not stated)
 : . | 1.4
- NCc1ccc(Oc2ccc(F)cc2)cc1
 : . | -0.9
- CCOC(=O)c1cnc2c(c(C)nn2CC)c1Cl
 : 3 | .
- N#CCCN(C(=O)Nc1ccccc1)c1ccccc1
 : -0.077 | 0.7
- c1cc2c(cc1-c1nc3sc(-c4ccc5c(c4)OCO5)nc3s1)OCO2
 : 0.14 | 14
- CCC(=O)N(c1nnc(SCc2ncc(-c3ccccc3)o2)s1)C1CC1
 : . | -2.1
- Nn1c(SCC(=O)O)nnc1-c1ccncc1
 : -0.11 | -2.1
- NC(=O)CCS(=O)(=O)CCN1CCN(Cc2c(F)cccc2Cl)CC1
 : . | 2.4
- O=C(c1cccs1)N1CCCn2c1nc1ccccc12
 : -0.48 | 0.1
- CCCN(Cc1nc2cc(Cl)ccc2c(=O)[nH]1)C(=S)NC
 : . | 0.5
- Cc1cc(C)c2c(n1)SCC(=O)N2CC(=O)NCC1CCCO1 (configuration not stated)
 : -0.72 | 1.2
- CCC(Sc1nc(N)cc(=O)[nH]1)C(=O)Nc1cccc2ccccc12 (configuration not stated)
 : 2.1 | -3.2
- O=C(NCc1cccs1)c1c[nH]c2c(F)cccc2c1=O
 : -0.5 | -1.9
- Cn1c(SCc2ccccc2Cl)nnc1-c1oc2nc(-c3ccccc3)cc(-c3ccco3)c2c1N
 : -0.26 | -6.5
- O=C1CC(Cc2ccccc2)C(=O)N1c1nccs1 (configuration not stated)
 : . | 1.8
- C[C@H](NC(=O)c1ccco1)C(=O)Nc1ccc(S(=O)(=O)N2CCCC2)cc1
 : . | 1.3
- Cc1ccc(NC(=S)Nc2ccc(C)cc2)cc1
 : . | 0.6
- Cc1cc(=O)oc2ccc(O)cc12
 : -0.52 | 2.2
- O=C(Cc1ccccc1)NN1C(=O)C2C3C=CC(C3)C2C1=O (configuration not stated)
 : 0.5 | 3.8
- NC(N)=NC(N)=Nc1ccccc1C(F)(F)F
 : -0.45 | -1.2
- O=C(OCc1ccc(Br)cc1)c1ccco1
 : 0.19 | 1.6
- COc1ccccc1N=Cc1ccsc1S
 : . | -0.9
- O=C(OCC(=O)N1CCN(c2ccccc2)CC1)c1ccc2[nH]c3c(c2c1)CCCC3
 : . | 2.3
- Cc1c(C(=O)OC(C)C(=O)Nc2ccc(S(N)(=O)=O)cc2)sc2nc3n(c(=O)c12)CCCCC3 (configuration not stated)
 : . | -0.8
- CSc1sc(C(=O)O)c(-c2cccs2)c1C#N
 : . | -1.5
- CCOC(=O)c1cc(-c2cccnc2)nc2c1c(C)nn2C
 : . | -2.5
- NS(=O)(=O)c1cc(C(=O)O)c(NCc2ccco2)cc1Cl
 : -0.0045&-0.045&-0.23&1.1 | 0.6&2.1
- COC(=O)c1[nH]c(COc2ncnc3ccccc23)c(C(=O)OC)c1C
 : . | -2.3
- OC(CCN1CCCCC1)(c1ccccc1)c1ccccc1
 : -0.65&0.45 | -1.8&2.5
- N#C/C(=C\c1cn(-c2ccccc2)nc1-c1cc2ccccc2o1)C(N)=S
 : . | 2.4
- Cc1ccc(NS(=O)(=O)c2cc(Cl)ccc2Cl)nc1
 : -0.92 | 0.3
- COc1ccc(/C=c2\sc3n(c2=O)C(N)=C(C#N)C(c2ccc(OC)cc2)C=3C#N)cc1 (configuration not stated)
 : 0.89 | -2.5
- CN(C)C(=O)CN(c1ccc(Cl)cc1Cl)S(C)(=O)=O
 : -2 | 2.6
- C[C@@H]1O[C@@H](OC[C@H]2O[C@@H](Oc3c(-c4ccc(O)c(O)c4)oc4cc(O)cc(O)c4c3=O)[C@H](O)[C@@H](O)[C@@H]2O)[C@H](O)[C@H](O)[C@H]1O
 : 0.02 | .
- CC(C)c1cc(C(C)C)c(S(=O)(=O)NCCCN2CCOCC2)c(C(C)C)c1
 : . | 0.5
- Cc1nc(SCC(=O)c2ccc3c(c2)CCN3S(C)(=O)=O)n(C2CCCCC2)c1C
 : . | 1.0
- Cn1cc(C(=O)N/N=C/c2ccc(Cl)cc2Cl)ccc1=O
 : 1.6 | -0.7
- Cc1ccccc1N1C(=O)C=CC1=O
 : . | 1.6
- CC1=C(C(=O)Nc2cccc(C(F)(F)F)c2)C(c2ccccc2)C2=C(CCCC2=O)N1 (configuration not stated)
 : . | 0.5
- C=CCn1c(SCc2cccnc2)nnc1-c1ccncc1
 : -1.3 | 0.8
- N=c1oc2ccccc2cc1C(=O)Nc1ccccc1
 : -0.66 | 2.8
- COc1ccc(C)c2sc(=NC(=O)C3CC3)n(C)c12
 : -0.58 | 0.4
- Cc1cc(C(=O)OCC(=O)Nc2ccccc2C#N)c(C)n1-c1ccc(F)cc1
 : . | 0.8
- COc1cccc(N2C(=O)/C(=C\N3CCCCC3)C(=O)NC2=S)c1
 : -0.64 | -1.1
